PK Bst: pyruvate kinase (B. stearothermophilus) modulation; partly purified Bacillus stearothermophilus pyruvate kinase, luminescence ATP production; ribose 5-phosphate activator present at AC10; Potency, µM; 51,000 tested, 1.2% active; AID 361; in the data active means potency below about 11 µM; inconclusive means mostly about 12 µM to 25 µM; inactive means weaker than that;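 the screen sought inhibitors and activators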;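 note: potency is the fitted concentration of half-maximal effect; scaled between full activation by ribose 5 phosphate and full inhibition by luteolin; about four in five hits inhibit and the cells do not say which; series up to 57 µM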
TsaE inh: inhibitors of E. coli YjeE (TsaE) | P0AF67 | purified YjeE, fluorescence polarisation of a bound ADP probe | Potency, µM | 71,000 tested, 0.05% active | AID 605; active = well fitted falling curve; inconclusive = weaker or top-dose-only fall, or a rising curve; inactive = flat or poorly fitted curve;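 note: top concentration of the series not given in the record; excess ADP was the control for the full effect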
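Fluorescence polarization of a BODIPY Texas Red–ADP probe (2 uM) bound to purified YjeE (10 uM) was read after 15 min room-temperature incubation with compounds. Loss of polarization marks inhibitors; ADP serves as titrated control.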
The depositor's hits bear a star; i = inactive; ? = inconclusive; nt = not tested or not shown.

SMILES	PK Bst	TsaE inh
COC(=O)CNC(=O)[C@@]1(Cc2ccccc2)C=C[C@@H](C)N1C(=O)c1ccccc1	nt	i
O=C(c1ccc2c(c1)OCCO2)C1CCN(S(=O)(=O)c2cccc(F)c2)CC1	i	i
O=S(=O)(c1cccc2c(S(=O)(=O)N3CCCC3)cccc12)N1CCCC1	>57	i
Cc1c(C)[n+](=O)c(-c2ccco2)c(C)n1[O-]	nt	i
CC(=O)N1CCC[C@@]2(CCN(c3ccncc3)C2)C1	nt	i
Cc1cccc(S(=O)(=O)Nc2cccc(-c3cn4ccsc4n3)c2)c1	>57	i
CCOC(=O)C(CCc1nnc(N)s1)C(=O)OCC	nt	i
Cc1nnc(SCc2nc3ccccc3[nH]2)s1	>11	nt
CC(=O)N1CCc2cc(Br)cc(S(=O)(=O)N3CCN(C(=O)c4ccco4)CC3)c21	>57	i
C=C(C)Cn1c(N2CCN(CC)CC2)nc2c1c(=O)[nH]c(=O)n2C	nt	i
CCCC(=O)Nc1ccc(NC(=O)c2cccs2)cn1	>57	i
COc1ccc(-c2cc3ccccc3n2CC(O)Cn2nc(C)cc2C)cc1 (stereo not given)	>57	i
N#CCC(=O)Nc1ncn(Cc2ccccc2Cl)n1	>57	i
Cc1cc(N(C)C)c(C#N)c(N2CCOCC2)n1	>57	i
CCN1CCN(Cc2ccccc2NC(=O)Nc2ccc(C)cc2)CC1	>57	i
COc1cccc(NC(=O)c2ccccc2SC)c1	>57	i
CCS(=O)(=O)N1CCC(C(=O)NCC2CCCO2)CC1 (stereo not given)	>57	i
O=C(NC1CCCCC1)NC1CC2CCC(C1)N2C(=O)NCc1ccccc1 (stereo not given)	>57	i
COc1ccc(CCNS(=O)(=O)c2ccc3c(c2)CCN3C(=O)CCC(=O)O)cc1OC	>57	i
OC(COCc1ccccc1)CN1CCN(c2ccccc2F)CC1 (stereo not given)	>57	i
Nc1c(-c2ccccc2)n[nH]c1-c1ccccc1	nt	i
COC(=O)C1C2C=CC3(CN(Cc4ccco4)C(=O)C13)O2 (stereo not given)	>57	i
Cc1onc(-c2ccccc2)c1C(=O)NCc1ccc2c(c1)OCO2	nt	i
CCCS(=O)(=O)N1CCCC(C(=O)NCCCN(Cc2ccccc2)C(C)C)C1 (stereo not given)	>57	i
CC(=O)Nc1ccc(S(=O)(=O)N2CCN(c3cc(C)nc4ccccc34)CC2)cc1	>57	i

Some of the entries above, reformatted:
canonical_smiles | PK Bst | TsaE inh
COc1ccc(-c2cc3ccccc3n2CC(O)Cn2nc(C)cc2C)cc1 (stereo not given) | >57 | i
CCOC(=O)C(CCc1nnc(N)s1)C(=O)OCC | nt | i
COC(=O)CNC(=O)[C@@]1(Cc2ccccc2)C=C[C@@H](C)N1C(=O)c1ccccc1 | nt | i

Other structures follow.
SMILES	PK Bst	TsaE inh
CNC(=O)N(O)C1N(C)C(=O)N(CC(=O)OC)C1(C)C (stereo not given)	>57	i
CCC(=O)Nc1ccc(NC(=O)c2cccc(OC)c2)nc1	nt	i
COc1cc(-c2nc(Cc3c(F)cccc3Cl)no2)cc(OC)c1OC	>57	i
O=C(NCC1CCCCC1)C1CCCN(C(=O)NC2CCCCC2)C1 (stereo not given)	>57	i
CCOC(=O)c1cc(NC(=O)N2CCCCC2)c(C)nc1C	>57	i
COc1cc(C2N(c3ccccc3)CCN2c2ccccc2)cc(OC)c1OC	nt	i
COc1ccc(Oc2ncc3nc(-c4ccc(OC)cc4)c(=O)n(C)c3n2)cc1	nt	i
Cc1cc(C(=O)CSc2nnc(-c3ccc(Cl)cc3)n2CC2CCCO2)c(C)n1C (stereo not given)	>57	i
CCc1nc(N)c(C#N)c(-c2cccnc2)c1C	>57	i
O=C1C=C(O)CC(c2ccc(Cl)cc2)C1 (stereo not given)	nt	i
CCC1Oc2ccc(C)cc2N(CC(=O)N2CCN(c3ccc(F)cc3)CC2)C1=O (stereo not given)	nt	i
O=C(NCc1ccccn1)c1c(Cl)cccc1Cl	nt	i
COc1ccc(CN(C)CCc2ccccn2)cc1OC	>57	i
CN(C)c1ccc(NC(=O)c2cccc(N3C(=O)CCC3=O)c2)cc1	nt	i
Cc1ccc2c(c1)N(CCC(=O)NC1CC1)C(=O)C(C)O2 (stereo not given)	>57	i
CC(C)(C)c1ccc2c(c1)N(CC(=O)O)C(=O)CO2	>57	i
CCCCC(c1nnnn1Cc1ccco1)N1CCN(c2nc3ccccc3s2)CC1 (stereo not given)	>57	i
CN1C(=O)N(S(=O)(=O)c2ccc(F)c(F)c2F)C(=O)C1(C)C	>57	i
CCC(Sc1nc(N)c(NC(=O)c2ccc(OC)c(OC)c2)c(=O)[nH]1)C(=O)OC (stereo not given)	nt	i
CSc1nsc(SCCN2C(=O)c3ccccc3C2=O)n1	>57	i
O=C(OCc1ccccc1)Oc1cncc(C(=O)O)c1	>57	i
Nc1nonc1/C(=N/O)N1CCN(CCO)CC1	nt	i
C(=N\c1nccs1)/c1c[nH]c2ccccc12	nt	i
COC(=O)C1=C(N)OC2=C(C(=O)CC(C)(C)C2)C1c1ccoc1 (stereo not given)	>57	i
CCN1CCCC1CNC(=O)Cn1cnc2ccc(S(=O)(=O)N3CCC(C)CC3)cc2c1=O (stereo not given)	>57	i
Later entries
SMILES	PK Bst	TsaE inh
COc1ccc(-n2c(C)c(C(C)=O)c3cc(O)ccc32)cc1	>26	nt
c1csc(Cc2nc3ccccc3[nH]2)c1	>57	i
COc1cccc(N2CC(C(=O)Nc3c(C)cccc3C)CC2=O)c1 (stereo not given)	>57	i
Cc1ccc(-c2nnn(CC(=O)N3CCN(c4nc5ccccc5s4)CC3)n2)cc1	>57	i
COc1cc2nc(CN3CCN(c4ncc(C(F)(F)F)cc4Cl)CC3)[nH]c(=O)c2cc1OC	>57	i
N#C/C=C1\Sc2ccccc2C(=O)N1CC(=O)N1CCN(S(=O)(=O)c2ccccc2)CC1	>57	i
Cc1ccc(S(=O)(=O)NCc2ccccc2)cc1	nt	i
c1ccc(-c2ccccc2-n2cnnn2)cc1	nt	i
CCc1cc2c(=O)c(-c3nc4ccccc4n3C)c(C(C)C)oc2c(CN2CCN(C)CC2)c1O	nt	i
COc1ccc(N2C(=O)C3C4C=CC(C4)C3C2=O)nn1 (stereo not given)	>57	i
CCCc1cc(C(=O)Nc2sc(C(C)=O)c(C)c2C(=O)OCC)no1	nt	i
Cc1nc2c(O)cccc2c(=O)[nH]1	nt	i
CC1(C)CC(=O)C2=C(C1)N(c1cccc(O)c1)C1=C(C2)C(=O)CC(C)(C)C1	>57	i
CCc1cc2c(=O)c(-c3cscn3)coc2c(CN(C)C)c1O	>26	nt
CCCCOC(=O)Nc1nnc(COc2ccccc2)s1	nt	i
CN(C)c1ccc(/C(=N\O)c2ccccc2)cc1	nt	i
Cc1ccc(-c2nn3c(C)nnc3s2)cc1NC(=O)c1cccnc1	nt	i
C=CCNc1nc(N)c(C(=O)Nc2cc(C)on2)s1	nt	i
COc1ccccc1-c1cc(C(=O)Nc2cc(C)n(Cc3ccc(Cl)cc3)n2)no1	>57	i
Cc1cc(=O)oc2c(CN3CCOCC3)c(O)ccc12	nt	i
CNC(=O)/C(=N\O)c1ccccc1	>57	i
Cc1cc(C(N)=O)c2cc(Br)ccc2n1	nt	i
O=C(NCc1ccco1)C1CCN(S(=O)(=O)N2CCC3(CC2)OCCO3)CC1	>57	i
OC[C@@H]1NC[C@@H](O)[C@H]1O	nt	i
CCOC(=O)CCc1nc2ccccc2[nH]1	>57	i
(continued)
SMILES	PK Bst	TsaE inh
CCOC(=O)N1CCC(NCCNC(=O)c2ccc(Cl)cc2)CC1	>57	i
C/C(=N\O)c1ccc2[nH]ccc2c1	>26	nt
Cc1noc(C)c1COC(=O)Cc1ccc(Cl)c(Cl)c1	nt	i
C=CCNS(=O)(=O)c1ccc(OC)c(C)c1	>57	i
O=C1C2C(C(=O)N1Cc1ccco1)C1C=CC2C12CC2 (stereo not given)	>57	i
CC1CCCN(CC(O)COc2ccc(Cl)cc2)C1 (stereo not given)	>57	i
Cc1cccc(NCc2ccccc2O)c1C	>57	i
Cc1ccc(Cn2c(SCc3cccnc3)nc3c2c(=O)n(C)c(=O)n3C)cc1	>57	i
CCc1ccccc1N1CSC2=C(C#N)C(c3ccccc3F)CC(=O)N2C1 (stereo not given)	nt	i
Cc1ccc(S(=O)(=O)O)c(C)c1N1CCCC1=O	>57	i
OC[C@H]1O[C@@H](n2cnc3c(NC4CCCC4)ncnc32)[C@H](O)[C@@H]1O	>26	nt
Cc1cc(NCCN(C)C)n2nc(-c3cccs3)cc2n1	nt	i
NC(=O)c1ccccc1N/C=C/C(=O)c1ccco1	?	i
COC(=O)c1c(NC(=O)c2nc3ccccc3s2)sc2c1CCN(C(C)=O)C2	nt	i
COc1ccc(NCCNc2ccc(OC)cc2)cc1	nt	i
CCn1c(SCC(=O)Nc2nc(C)cs2)nnc1-c1ccco1	>57	i
O=C(c1ccccc1)c1ccncc1	>57	i
Cc1ccc(N(O)C(=O)OCCNC(=O)Nc2ccccc2)cc1	>57	i
CCCCCCc1nnc(NC(=O)OCC)s1	nt	i
Cc1c(Cl)cccc1NC(=O)CCN1CCCC(C)C1 (stereo not given)	>57	i
O=c1[nH]c2ccc(S(=O)(=O)N3CCN(c4ccccc4F)CC3)cc2s1	>57	i
Cn1cccc1C(=O)NC(=O)COC(=O)Cc1coc2ccc3ccccc3c12	?	i
CCOc1cccc(N2C(=O)CC(NCc3ccc(S(N)(=O)=O)cc3)C2=O)c1 (stereo not given)	nt	i
CCOc1ccc(N2Cc3ncccc3C2=O)cc1	11*	i
O=C(CSc1ccc2nnc(-c3ccccn3)n2n1)N1CCN(c2ccccc2)CC1	nt	i

PK Bst, entries above that show a hit.
SMILES	PK Bst	TsaE inh
CCOc1ccc(N2Cc3ncccc3C2=O)cc1	11*	i

The listing continues.
SMILES	PK Bst	TsaE inh
CC(C)(C)Nc1c(N)c(=O)oc2ccccc12	nt	i
Cc1ccc(C(=O)Nc2ncc(Cc3ccc(F)cc3)s2)o1	nt	i
CN(Cc1ccco1)c1nc(-c2cccnc2)nc2ccccc12	nt	i
Cc1n[nH]c(C)c1S(=O)(=O)N1CCN(c2ccccn2)CC1	>57	i
COc1ccc2[nH]cc(CCNC(C)=O)c2c1	nt	i
N#CC1=C(N)C(C#N)(C#N)C(c2ccc[nH]2)C2CCCC=C12 (stereo not given)	>57	i
OC/C(Br)=C(\Br)CO	nt	i
CCNc1c(N)c(=O)oc2ccccc12	nt	i
O=C1c2ccccc2C(=O)N1Cc1ccc2c(c1)OCO2	>57	i
CC1(C)Cc2c(c(-c3ccccc3)[nH]c(=O)c2C#N)CO1	>57	i
Cc1cc(C)n(-c2nc(C)nc3sc4c(c23)CCC(C)C4)n1 (stereo not given)	>57	i
O=C(O)c1cccc(N2C(=O)CCC2=O)c1	>57	i
Nc1ccn([C@@H]2O[C@H](COC(=O)C34CC5CC(CC(C5)C3)C4)[C@@H](O)[C@@H]2O)c(=O)n1	nt	i
Cc1cc(C)nc(CC(N)=O)n1	>26	nt
COc1cc2c(C#N)c(N3CCCCC3)nc(N)c2c(N)n1	i	i
CC(N)CN (stereo not given)	nt	i
Cn1cc(S(=O)(=O)N2CCN(C(=O)c3ccco3)CC2)c(=O)n(C)c1=O	nt	i
COc1ccccc1N1CCN(C(=O)c2ccccc2Oc2ccccc2)CC1	>57	i
Cc1occc1-c1nnc(SCC(=O)N2CCCc3ccccc32)n1Cc1ccco1	>57	i
O=C(Nc1ccc(F)cc1)N1CCOCC1	>57	i
Cc1noc(C)c1COC(=O)CCCc1c[nH]c2ccccc12	>57	i
Cc1cc(C)c2nc(SCC#N)cc(C)c2c1	>57	i
Cc1ccc(C)c2[nH]c(=O)c(CCNC(=O)CC(C)(C)C)cc12	nt	i
CC(C)c1ccc(NS(=O)(=O)c2ccc3[nH]cc(C(=O)N4CCC(C(N)=O)CC4)c(=O)c3c2)cc1	nt	i
COc1ccc2[nH]c(=O)c(CN(C)C(=O)C3CCCCC3)cc2c1	>57	i

A different layout for part of the listing above:
PK Bst	TsaE inh	SMILES
>57	i	CC1(C)Cc2c(c(-c3ccccc3)[nH]c(=O)c2C#N)CO1
>57	i	Cc1cc(C)n(-c2nc(C)nc3sc4c(c23)CCC(C)C4)n1 (stereo not given)
>57	i	O=C(O)c1cccc(N2C(=O)CCC2=O)c1
nt	i	Nc1ccn([C@@H]2O[C@H](COC(=O)C34CC5CC(CC(C5)C3)C4)[C@@H](O)[C@@H]2O)c(=O)n1
>26	nt	Cc1cc(C)nc(CC(N)=O)n1
i	i	COc1cc2c(C#N)c(N3CCCCC3)nc(N)c2c(N)n1
nt	i	CC(N)CN (stereo not given)

Continuation:
SMILES	PK Bst	TsaE inh
CN(Cc1ccccc1)S(=O)(=O)c1ccc(S(=O)(=O)N2CCN(CCC#N)CC2)cc1	nt	i
O=C(Oc1nsnc1N1CCOCC1)N1CCOCC1	>57	i
Cc1ccsc1CN1CCN(c2ccccn2)CC1	nt	i
Cc1ccc(N(C(=O)c2ccc(S(=O)(=O)N3CCOCC3)cc2)C2C=CS(=O)(=O)C2)cc1 (stereo not given)	>57	i
C=CCn1c(SCn2nnc3ccccc3c2=O)nnc1C1CCCCC1	>57	i
COC(=O)c1ccc2c(=O)n3c(nc2c1)SCC(c1ccccc1)=N3	nt	i
Cn1nc(-c2ccccc2F)c2cc(C(=O)N3CCN(C(=O)c4ccco4)CC3)sc21	>57	i
CC1(C)NC(=O)N(CCCCOc2ccc3c(c2)CCC3)C1=O	>57	i
Cc1occc1-c1nnc(SCC(=O)NCc2ccco2)n1CC(C)C	>57	i
CC(=O)Nc1cc2c(cc1C(=O)c1ccc(C)cc1)OCCO2	>57	i
O=C(O)COc1cccc2nsnc12	>57	i
COc1ccc(-n2nnnc2SCC(=O)N2C(C)CCCC2C)c(OC)c1 (stereo not given)	>57	i

These rows are one share of the data; count on the stated rates, not on these rows.
